# BmaI1 = BmaI1 acyl-homoserine lactone synthase inhibition – biochemical, fluorescence intensity, with counterscreen (AID 720554) | BmaI1 enzyme assay, fluorescence intensity; hits give high values; test concentration not given here; a few actives read low; strong numbers were not always called active | inhibition, % | 0.4% of 12,000 active;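 active = both replicates within 2 robust z-scores of the inhibited control and a quiet counterscreen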;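 note: 0% = uninhibited enzyme and 100% = inhibited control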
# BmaI1 counterscreen = recorded beside BmaI1, whose call it bears; inhibition, %; measured here: counterscreen; design of the counterscreen not given here;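 first of two replicates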
# * hit, by the source's call. This is a subset; rates above refer to the full screens.
SMILES,BmaI1,BmaI1 counterscreen
Cc1c(Br)c(=O)[nH]c(=O)n1Cc1ccccc1,16,12
Cn1c(SCC(=O)NCc2ccc(F)cc2)nc2ccccc21,6,-1
COc1ccc(CCN2C(=O)CC(N3CCCC(C(F)(F)F)C3)C2=O)cc1 (configuration not stated),12,11
O=C(NCC1CCCO1)c1cccc(-c2ccc(O)cc2)c1 (configuration not stated),32,26
O=C1NC(=O)/C(=C\c2cccs2)S1,6,6
CCCc1ccc(S(=O)(=O)N2CCNCC2)cc1,-5,4
O=C(NCCc1c[nH]c2ccccc12)c1c(Cl)nc2sccn12,8,1
NC(=O)c1c(NC(=O)COC(=O)Cc2ccsc2)sc2c1CCCC2,10,2
CN(C)/C=N/n1cnc2ccccc2c1=O,16,10
Nc1nccnc1C(=O)OCC(=O)NC1CC1,4,0
CC(Sc1ccccc1)C(=O)Nc1ccc(N2CCOCC2)cc1 (configuration not stated),8,-6
Nn1c(SCc2cc(=O)n3ccsc3n2)nnc1-c1ccc(Cl)cc1Cl,26,-4
O=C(COC(=O)CCc1nnc(-c2ccccc2)o1)Nc1ccc(F)cc1,16,8
CC1CCc2sc(C(=O)OC3CCCCC3=O)cc2C1 (configuration not stated),0,-4
N#Cc1ccccc1NC(=O)COC(=O)c1ccccc1I,2,3
CCn1cc(C(=O)N(Cc2ccc(F)cc2)C2CCCCC2)c(=O)c2ccc(C)nc21,14,0
Cc1ccc(-n2c(SCc3nc(N)nc(N)n3)nnc2-c2ccccc2)cc1C,8,2
CCCCN1C(=O)CC(C(=O)O)C1c1ccc(OC)cc1 (configuration not stated),-4,3
O=C(NC1CC1)C(Cc1ccccc1)NS(=O)(=O)c1ccccc1F (configuration not stated),6,-4
CC(C)(C)NC(=O)[C@@H]1CN(Cc2cccnc2)CCN1C[C@@H](O)C[C@@H](Cc1ccccc1)C(=O)N[C@H]1c2ccccc2C[C@H]1O,8,13
Cc1cc(/C=C(\C#N)C(=O)C(C)(C)C)c(C)n1-c1ccc(I)cc1,20,11
NS(=O)(=O)c1ccc(CCNC(=O)CC2(CC(=O)O)CCCCC2)cc1,18,-1
Cc1ccc(C)n1-c1ccc(C(=O)NCC(F)(F)F)cc1,12,0
Cc1cccc(C(=O)N[C@H](C(=O)Nc2nc3ccccc3[nH]2)C(C)C)c1,6,4
O=C(O)COc1ccc(C=Nc2ccc3c(c2)OCO3)cc1Cl,69,25

# Whole records, looked up by structure. Order of screens: BmaI1, BmaI1 counterscreen
# Shown for `Cc1cccc(C(=O)N[C@H](C(=O)Nc2nc3ccccc3[nH]2)C(C)C)c1` : 6, 4
# Shown for `COc1ccc(CCN2C(=O)CC(N3CCCC(C(F)(F)F)C3)C2=O)cc1` (configuration not stated) : 12, 11
# Shown for `CC(Sc1ccccc1)C(=O)Nc1ccc(N2CCOCC2)cc1` (configuration not stated) : 8, -6
# Shown for `O=C(NCC1CCCO1)c1cccc(-c2ccc(O)cc2)c1` (configuration not stated) : 32, 26
# Shown for `O=C(NC1CC1)C(Cc1ccccc1)NS(=O)(=O)c1ccccc1F` (configuration not stated) : 6, -4

# Later entries
SMILES,BmaI1,BmaI1 counterscreen
Cc1cc(/C=C/C(=O)O)c(C)n1-c1ccnn1C(C)C,-2,-6
CCCc1ccc(C2=C(C)SC3=NS(=O)(=O)CCN32)cc1,14,8
CS(=O)(=O)Cc1cccc(C(=O)Oc2ccccc2C#N)c1,12,12
CCOC(=O)C1=C(CSc2nnc(-c3cccnc3)n2Cc2ccccc2)NC(=O)NC1C (configuration not stated),1,2
CCCn1c(NC(=O)CCNC(=O)c2ccco2)nc2ccccc21,4,4
O=C(COc1ccccc1C(=O)O)NC1CCCc2ccccc21 (configuration not stated),-8,-2
CNC(=O)CSc1nnc(SCCC(=O)O)s1,0,2
Cc1cc(C)n2nc(C(=O)NC34CC5CC(CC(C5)C3)C4)nc2n1,0,2
CN(C)c1ccc(/C=N/N2CC(O)=C(c3nc4ccccc4s3)C2=N)cc1,7,28
COc1ccc(CNC(=O)C(C)Sc2nnnn2C)cc1 (configuration not stated),4,4
Cc1onc(-c2ccccc2)c1C(=O)OCc1ncc(-c2ccccc2)o1,29,18
Cc1ccc(Cn2ccsc2=NC(=O)CSc2nnc(-c3cccnc3)n2N)cc1,15,11
COc1cccc(CC(=O)Nc2nccs2)c1,8,8
Cc1oc(-c2ccccc2)nc1C(=O)OC(C)c1nc2sc(C)c(C)c2c(=O)[nH]1 (configuration not stated),18,11
CN(C)CC/C=C1/c2ccccc2COc2ccccc21,2,4
c1ccc2c(c1)C(=NCC1CCCO1)NC2=NCC1CCCO1 (configuration not stated),10,5
Nc1ccc(Cc2nc3ccccc3s2)cc1,36,2
CCOC(=O)Nc1ccc2c(COC(=O)c3oc4ccc(Br)cc4c3C)cc(=O)oc2c1,16,4
O=C(Cc1ccc(Cl)cc1Cl)NC1CC1,9,10
Cc1cccn2c(=O)c(C=NCc3ccco3)c(Nc3ccc(Cl)cc3)nc12,4,1
Cc1noc(C)c1C(=O)OC(C)C(=O)Nc1ccc(S(=O)(=O)NC(C)C)cc1 (configuration not stated),2,4
CCN(Cc1nc2ccccc2c(=O)[nH]1)Cc1nc2cc(OC)c(OC)cc2c(=O)[nH]1,13,-2
COC(=O)C12CC3(C)CC(C)(CC(C)(C3)C1)C2,10,10
CCOC(=O)N1CCN(C(=O)/C=C/c2c(C)nn(-c3ccc(F)cc3)c2Cl)CC1,4,2
Clc1cccc(/C=N/n2c(-c3cccs3)csc2=NCCN2CCOCC2)c1,20,9

# Some of the entries so far, with two lines to a compound.
# Below each SMILES: BmaI1, BmaI1 counterscreen
Clc1cccc(/C=N/n2c(-c3cccs3)csc2=NCCN2CCOCC2)c1
    20, 9
O=C(Cc1ccc(Cl)cc1Cl)NC1CC1
    9, 10
Cc1noc(C)c1C(=O)OC(C)C(=O)Nc1ccc(S(=O)(=O)NC(C)C)cc1 (configuration not stated)
    2, 4
Cc1cc(/C=C/C(=O)O)c(C)n1-c1ccnn1C(C)C
    -2, -6
CCOC(=O)N1CCN(C(=O)/C=C/c2c(C)nn(-c3ccc(F)cc3)c2Cl)CC1
    4, 2
CN(C)c1ccc(/C=N/N2CC(O)=C(c3nc4ccccc4s3)C2=N)cc1
    7, 28
Cc1onc(-c2ccccc2)c1C(=O)OCc1ncc(-c2ccccc2)o1
    29, 18

# Remaining list, next part:
SMILES,BmaI1,BmaI1 counterscreen
Cc1ccc(C)n1CC(N)=O,9,-62
O=C(COC(=O)c1ccccc1)NCc1ccc2c(c1)OCO2,4,-2
Cc1cc(C)nc(-n2ncc(Cl)c(Cl)c2=O)n1,12,-2
COc1ccc(CN(C(=O)Nc2ccccc2)C2CC2)cc1,20,11
COC(=O)c1ccc2c(=O)[nH]c(COC(=O)c3cnc(C)cn3)nc2c1,16,5
O=C(CCC(=O)N1CCc2ccccc2C1)c1ccccc1,17,8
Cc1ccc(C(=O)N(C(=O)c2ccc(C)cc2)c2cc(C)on2)cc1,12,14
CCOC(=O)C1C2CCC(C2)N1S(C)(=O)=O (configuration not stated),10,-2
COc1ccc(C(=O)OCC(=O)c2cc(OC)ccc2OC)cc1,16,4
Cc1cc(OCCCC(=O)NC2=NCCS2)ccc1Cl,4,-4
Cc1ccc(C2C3=C(COC3=O)Nc3c2c(=O)n(C)c(=O)n3C)cc1 (configuration not stated),-3,-6
Nc1c(N(C(=O)C2CCCO2)C2CCCC2)c(=O)[nH]c(=O)n1Cc1ccccc1 (configuration not stated),-2,-8
Cc1ccccc1Nc1nc(N)nc(CSc2nc3ccccc3c(=O)n2C)n1,3,2
Nc1nc(SCC(=O)NC2CCCCC2)n[nH]1,8,8
CC(OC(=O)C1CCN(S(=O)(=O)c2ccc3c(c2)OCCO3)CC1)C(=O)Nc1ncc(Cl)cc1Cl (configuration not stated),-11,0
CN(C)/C=C1\CCCCN2C(=O)/C(=C\c3ccc(Cl)cc3)N=C12,27,10
Cc1cc2occ(CC(=O)Oc3ccc4c(c3)OCO4)c2cc1C,32,22
CC(C)NC(=S)NNc1ccccc1C(F)(F)F,14,-31
FC(F)n1c(=S)[nH]c2ccccc21,14,0
CC(c1nnc(SCc2cc(=O)n3ccsc3n2)n1-c1ccc(Cl)cc1)N1CCCCC1 (configuration not stated),24,10
Nn1c(NNC(=O)c2ccccc2)nnc(-c2cccs2)c1=O,92*,12*
COC(=O)/C(=C(/O)c1ccccc1)c1nc2ccccc2[nH]1,4,0
CCOC(=O)/C=C1\SCC(=O)N1CC(=O)N1CCN(S(=O)(=O)c2ccc3ccccc3c2)CC1,2,10
Nn1c(SCc2csc(-c3ccccc3)n2)nnc1-c1cccs1,7,8
CC1CCCCN1C(=S)NC(=O)c1cccs1 (configuration not stated),23,12

# Copied from the list:
# CC(C)NC(=S)NNc1ccccc1C(F)(F)F in BmaI1 reads 14
# CN(C)/C=C1\CCCCN2C(=O)/C(=C\c3ccc(Cl)cc3)N=C12 in BmaI1 reads 27
# CCOC(=O)/C=C1\SCC(=O)N1CC(=O)N1CCN(S(=O)(=O)c2ccc3ccccc3c2)CC1 in BmaI1 reads 2

# More compounds follow.
SMILES,BmaI1,BmaI1 counterscreen
CN1CCN(C(=O)CSc2nc3ccccc3n2C)CC1,13,16
Cc1ccc(C)c(-n2nnnc2SCC(=O)N=c2sc3ccccc3n2C)c1,-2,-5
CCN(CC)S(=O)(=O)c1ccc(NN=c2c(=O)c3ccccc3c2=O)cc1,10,1
COc1ccccc1NCC(=O)N/N=C1\CCS(=O)(=O)c2ccc(F)cc21,24,6
CCOC(=O)C1=C(CSc2nc3ccccc3c(=O)n2C(C)CC)NC(=O)NC1C (configuration not stated),8,5
CO[C@H]1C=CO[C@@]2(C)Oc3c(C)c(O)c4c(O)c(c5c(nc6cc(C)ccn65)c4c3C2=O)NC(=O)C(C)=CC=C[C@H](C)[C@H](O)[C@@H](C)[C@@H](O)[C@@H](C)[C@H](OC(C)=O)[C@@H]1C,0,2
O=C(Cc1ccc(S(=O)(=O)N2CCOCC2)s1)Nc1nnc(C2CC2)s1,16,6
CC(C)CNC1CCC(O)CC1 (configuration not stated),-10,-11
O=C(Cn1nnc2ccccc2c1=O)NC(=O)NCc1ccccc1,14,10
CCN(C(=O)c1ccc(S(=O)(=O)N(C)C)cc1)c1nc2c(C)cccc2s1,11,3
CN(Cc1ccccc1)C1=CC2=CC(=C(C#N)C#N)CCC2CC1 (configuration not stated),14,8
CCNC(=O)c1ccc2c(c1)S(=O)(=O)c1ccccc1C2=O,18,10
OCCCNCc1cc(Cl)c2c(c1)OCCCO2,8,0
CCCCn1c(SCc2cc(=O)n3ccsc3n2)nc2cc(S(N)(=O)=O)ccc21,8,-4
CCc1ccc(NC(=O)C(C)OC(=O)C2CCC(=O)N2)cc1 (configuration not stated),6,2
COc1cc2c(cc1OC)CN(CC(=O)NC(=O)NC1CCCCC1)CC2,4,1
CC(C)CNC(=O)COn1nnc2ccc(S(=O)(=O)N(C)C)cc21,15,12
Brc1cc2c(cc1CSc1nnc3ccccn13)OCO2,14,17
COc1cc2c(cc1OC)CN(Cn1nc(C(F)(F)F)n(C)c1=S)CC2,14,15
COc1ccc(CC(=O)N=c2sc3ccccc3n2C)cc1S(=O)(=O)N1CCOCC1,6,-2
CC(C)(C)Cc1nc2ccccc2[nH]1,20,18
Cc1nn(CCC#N)c2c1P(=O)(c1ccccc1)/C(=C1\N(C)c3ccccc3C1(C)C)C=N2 (configuration not stated),10,-3
Cc1ccc(-c2nn(-c3ccccc3)cc2/C=C/C(=O)OCC(=O)Nc2ccc3[nH]c(=O)[nH]c3c2)o1,28,22
O=C(CSc1ccccc1C(=O)O)Nc1ccccc1OC(F)F,15,21
CC(C)C(NC(=O)CSc1ccc(Cl)cc1)C(=O)O (configuration not stated),-1,-2
COc1ccc(C2CC(=O)c3cnc(NC(C)=O)nc3C2)cc1OC (configuration not stated),0,-4

# From PubChem BioAssay
